# Rango release inh – inhibitors of RanGTP-induced Rango-importin beta complex dissociation; O95149+P62826; Biochemical FRET Rango-importin beta, RanGTP-induced dissociation; Potency, µM (doses to about 46.1 µM), for the others: top-dose activity change, negative = inhibition; actives 0.071% (n = 340,000); AID 540253; active means falling FRET ratio curve, often poorly fitted, with flat reads before Ran was added; inconclusive means other falling curves, or compound fluorescence or quenching; inactive means flat or rising ratio curve;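 further: potency means the concentration at half of the fitted maximal effect; % of control where 0% means no effect; nearly all actives have a fitted effect of over 45% in size; -100% = wells without RanGTP and RCC1; the record marks most hits as doubtful in a second field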
#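 FRET read at 45 min, room temperature: inhibitors block the CFP/YFP signal rise when RanGTP (0.6 uM Ran, 2 mM GTP, 0.2 uM RCC1) frees Rango (0.1 uM) from importin beta (0.25 uM). Pre-read after 5 min compound exposure flags interference.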
# GLA inh pH 4.5 – inhibitors of human alpha-galactosidase A at pH 4.5; P06280; activity change, negative = inhibition, % at 105 µM; 230,000 tested, under 10 active; purified enzyme, 4-MU-alpha-Gal fluorescence, pH 4.5; inconclusive = small, poorly fitted or top-dose-only inhibition, or a rising curve; inactive = flat fitted curve, though single readings scatter; no compound was filed as active;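 further: 0% = full activity with enzyme and -100% = basal without enzyme; dose as in the result columns while the protocol names 77 µM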
# Target sequence (P06280 whole entry, looked up): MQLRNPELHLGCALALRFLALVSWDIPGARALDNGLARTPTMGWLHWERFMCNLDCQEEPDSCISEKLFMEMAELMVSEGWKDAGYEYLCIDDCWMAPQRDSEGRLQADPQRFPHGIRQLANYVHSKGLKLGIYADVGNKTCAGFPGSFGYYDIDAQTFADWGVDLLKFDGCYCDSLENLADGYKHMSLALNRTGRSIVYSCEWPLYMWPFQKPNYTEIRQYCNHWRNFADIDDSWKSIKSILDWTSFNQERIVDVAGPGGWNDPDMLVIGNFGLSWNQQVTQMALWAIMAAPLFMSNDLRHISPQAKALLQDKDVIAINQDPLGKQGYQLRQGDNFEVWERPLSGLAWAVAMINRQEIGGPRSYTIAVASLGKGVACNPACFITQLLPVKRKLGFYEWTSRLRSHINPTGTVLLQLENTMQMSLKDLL
# Rango complex inh – Rango-importin beta binding inhibition; actives 0.031% (n = 340,000); Potency, µM (titrated, usually from 92.2 µM), for the others: at the highest dose inhibition of complex formation; Rango CFP/YFP FRET sensor + importin beta, 45 min; AID 540263; active = rising FRET ratio curve, often small or poorly fitted; inconclusive = mostly compound fluorescence or quenching in the first reads; inactive = flat curves in all reads;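 further: potency means the concentration at half of the fitted maximal effect; 0% = DMSO wells and 100% = buffer wells lacking importin beta; nearly all actives have a fitted effect of over 15% in size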
#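 FRET biosensor Rango (snurportin 1 IBB between N-terminal EYFP and C-terminal Cerulean), 50 nM in PBS/1 mM DTT/0.02% Tween-20/0.1% BSA, preincubated 5 min RT with compound; 0.125 microM importin beta added, 45 min RT, CFP/YFP FRET ratio read.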
# miR-21 FLuc – raises the signal of a miR-21 reporter; 340,000 tested, under 10 active; Potency, µM (highest dose often 38.3 µM), without a hit: at the highest dose reporter change, positive = more light; AID 2288; HeLa miR-21 FLuc reporter, luciferase, 48 h; active = well fitted rising curve with a large enough effect; inconclusive = small, poorly fitted or top-dose-only effect; inactive = no such curve, though single readings can be large or run the other way;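 further: % of control where 0% means no effect; miR-21 action dims this reporter so a rising signal means less miR-21 action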
#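 HeLa miR-21-FLuc reporter line, endogenous miR-21; 2000 cells/well in DMEM/10% FBS; compound titration up to ~40uM final, 48 h, 37 degree Celsius; luciferase detection reagent, 15 min lysis, CCD luminescence.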
# * hit, by the source's call; ? = inconclusive; / = not tested or not shown.
SMILES,Rango release inh,GLA inh pH 4.5,Rango complex inh,miR-21 FLuc
COC(=O)C1=CO[C@@H](C)[C@@H]2CN3CC[C@@]4(C(=O)Nc5ccccc54)[C@@H]3C[C@H]12,-6%,5,-4.0%,-5%
CNC(=O)Oc1ccccc1OC(C)C,5%,-4,-0.3%,/
CCCCCc1nc2c(c(=O)c3ccccc3n2C)c(=O)n1C1CCCCCC1,-2%,1,7.1%,-13%
O=C1NC(=O)N(c2cccc(F)c2)C(=O)/C1=C/c1ccc(N2CCOCC2)cc1,?,-11,?,4%
Cc1cc(OCC(=O)N2CCC(C(N)=O)CC2)c2c3c(c(=O)oc2c1)CCCC3,0%,/,0.3%,3%
Cc1nc(N2CCN(Cc3ccccc3)CC2)nc2c1C(=O)CC(C)C2 (stereo not given),-7%,0,?,-4%
O=[N+]([O-])c1ccc(N2CCNCC2)cc1Sc1ccccn1,-14%,-10,-3.9%,0%
O=C1CN=C(c2cccc(Br)c2)c2cc(Br)ccc2N1,2%,/,0.3%,23%
O=C(O)c1cccc2nc3ccccc3nc12,-10%,/,0.7%,1%
CC(C)COc1ccc(C2(C#N)CC[N+](C)(C)CC2)cc1,1%,-1,3.6%,0%
CNCCc1nc(N)n[nH]1,28%,-5,3.1%,-11%
CCCCn1c(O)c(C(C)=NCCc2ccccc2)c(=O)[nH]c1=O,-1%,-9,1.0%,2%
Cc1ccccc1-n1c(O)c(C=Nc2ccc(N(C)C)cc2)c(=O)[nH]c1=O,?,-1,?,-14%
Nc1ccc(Sc2ccc(N)cc2)cc1,4%,/,-1.3%,/
CN(C)C(=O)Oc1ccc(-c2cn3cc(C(F)(F)F)ccc3n2)cc1,-15%,4,1.7%,-53%
O=c1[nH]c(=S)n(CCC2=CCCCC2)c(O)c1C=NCCCn1ccnc1,-6%,4,3.7%,0%
COc1cc2c(cc1OC)[C@@]13CCN4CC5=CCO[C@H]6CC(=O)N2[C@H]1[C@H]6[C@H]5C[C@H]43,-19%,2,4.1%,-2%
Cc1nn(Cc2ccc(Cl)cc2Cl)c(Cl)c1C(=O)Nc1ccc(OC(F)F)cc1,-3%,17,-3.5%,-8%
Cc1cc(C(=O)N=Nc2c(O)n(C)c3ccccc23)c(C)o1,7%,4,-0.9%,-57%
COc1ccc(-c2nn(CCC#N)cc2C(=O)Nc2ccccc2Br)cc1,-21%,/,-1.2%,-10%
CCSc1nnc(C(N)Cc2ccccc2)o1 (stereo not given),-8%,5,5.6%,-4%
O=C1CCCN1C(=O)c1cncc(Br)c1,2%,-9,0.2%,1%
CCC(=O)OC1(c2ccccc2)C(C)CN(C)CC1C (stereo not given),-9%,0,-0.2%,2%
CCOC(=O)C1(c2ccccc2)CCN(CCC(=O)Nc2ccc(F)cc2)CC1,-11%,/,-0.5%,/
C[C@]12CCC3C(CC[C@H]4C[C@H](O)[C@H](O)C[C@]34C)C1CC[C@@H]2O (stereo not given in full),10%,/,-0.2%,/

# Compounds from the list above that contain fluorine:
SMILES,Rango release inh,GLA inh pH 4.5,Rango complex inh,miR-21 FLuc
O=C1NC(=O)N(c2cccc(F)c2)C(=O)/C1=C/c1ccc(N2CCOCC2)cc1,?,-11,?,4%
CN(C)C(=O)Oc1ccc(-c2cn3cc(C(F)(F)F)ccc3n2)cc1,-15%,4,1.7%,-53%
Cc1nn(Cc2ccc(Cl)cc2Cl)c(Cl)c1C(=O)Nc1ccc(OC(F)F)cc1,-3%,17,-3.5%,-8%
CCOC(=O)C1(c2ccccc2)CCN(CCC(=O)Nc2ccc(F)cc2)CC1,-11%,/,-0.5%,/

# Back to the main list, starting two compounds before the break.
SMILES,Rango release inh,GLA inh pH 4.5,Rango complex inh,miR-21 FLuc
CCOC(=O)C1(c2ccccc2)CCN(CCC(=O)Nc2ccc(F)cc2)CC1,-11%,/,-0.5%,/
C[C@]12CCC3C(CC[C@H]4C[C@H](O)[C@H](O)C[C@]34C)C1CC[C@@H]2O (stereo not given in full),10%,/,-0.2%,/
COc1ccc(C2SCC(=O)Nc3c2c(C)nn3-c2ccccc2)cc1OC (stereo not given),0%,-16,-2.0%,2%
COc1ccccc1OCC(=O)N1CCN(Cc2ccc3c(c2)OCO3)CC1,-24%,4,-0.7%,0%
O=C(/C=C/c1ccccc1)NCCc1cnc[nH]1,?,/,0.5%,-9%
CC(=O)C1C(=O)NC23CCCCC2C1c1ccccc1O3 (stereo not given),8%,5,-0.5%,-2%
CCOC(=O)C(O)(c1ccc(NC(=O)NC)cc1)C(F)(F)F (stereo not given),13%,-5,4.9%,-1%
Nc1cccc2c1Cc1cc([N+](=O)[O-])ccc1-2,13%,/,2.0%,/
CC(c1ccccc1)[n+]1ccccc1 (stereo not given),10%,/,-1.6%,/
Nc1c2c(nc3sc4c(c13)CCCCC4)CCCC2,0%,-14,-0.6%,-18%
CC(=O)c1ccc(S(=O)(=O)N2CCN(c3nc4c(C)c(C)ccc4cc3C#N)CC2)cc1,?,/,?,/
CN1C(=O)/C(=C/C=C/c2ccco2)C(=O)NC1=S,-20%,-5,?,-2%
Cc1ccc(-n2c(O)c(/C=N/NC(=O)c3ccncc3)c(=O)[nH]c2=O)cc1,-16%,-6,-2.0%,-11%
CC(C)(C)C(=O)OC[N+](C)(C)CCOC(=O)C(O)(c1ccccc1)C1CCCC1 (stereo not given),1%,-3,8.4%,-2%
CN1CCc2nc3sc(C#N)c(N)c3c(-c3cccs3)c2C1,?,-6,?,-1%
O=C1NC(=O)C(=Cc2ccc(Sc3ccccc3)o2)C(=O)N1,-2%,6,4.4%,11%
Cc1cc(C)c(N=Cc2c(O)[nH]c(=O)[nH]c2=O)c(C)c1,0%,/,-0.3%,-4%
CN1C(=O)C(C2CCCCC2)C(=O)N(C)C1=O,-12%,/,4.9%,/
COC(=O)CCCCC1SCC(NC(=O)c2ccccc2)C1Cl (stereo not given),0%,7,0.8%,0%
COc1ccc(CCNCc2ccccc2)cc1,7%,/,3.7%,-7%
COc1ccc(CN2CCCC(C(=O)c3sccc3C)C2)cc1O (stereo not given),-10%,-4,0.4%,0%
ClCCOCCCl,-5%,/,2.5%,/
COC1=CC=C2[C@H]3Cc4ccc(OC)c5c4[C@@]2(CCN3C)[C@H]1O5,1%,-3,-1.5%,0%
CN1Cc2cnnn2-c2ccccc2C1c1ccccc1 (stereo not given),12%,/,0.6%,/
C=CCn1c(O)c(C(C)=NCCC2=CCCCC2)c(=O)[nH]c1=O,-11%,7,5.3%,-6%
Nc1ccc(Br)cc1,20%,/,0.0%,/
CCCc1nc2ccccc2c(=O)n1-c1ccc(OC)cc1,-11%,-15,4.4%,-7%
O=C1/C(=C/c2cccnc2)N2CCC1CC2,-3%,0,0.3%,0%
CC(=O)c1cn(Cc2ccc(F)cc2)c2ccccc12,4%,/,4.4%,14%

# An excerpt from above, showing only Rango release inh:
Molecule,Rango release inh
O=C1NC(=O)C(=Cc2ccc(Sc3ccccc3)o2)C(=O)N1,-2%
Nc1ccc(Br)cc1,20%
CC(=O)C1C(=O)NC23CCCCC2C1c1ccccc1O3 (stereo not given),8%
O=C1/C(=C/c2cccnc2)N2CCC1CC2,-3%

# Some of the entries above in a different format:
# Values run as follows: Rango release inh | GLA inh pH 4.5 | Rango complex inh | miR-21 FLuc
> CC(c1ccccc1)[n+]1ccccc1 (stereo not given)
→ 10% | / | -1.6% | /
> CN1Cc2cnnn2-c2ccccc2C1c1ccccc1 (stereo not given)
→ 12% | / | 0.6% | /
> CN1C(=O)C(C2CCCCC2)C(=O)N(C)C1=O
→ -12% | / | 4.9% | /
> Nc1cccc2c1Cc1cc([N+](=O)[O-])ccc1-2
→ 13% | / | 2.0% | /

# Only part of the results is shown, so the mix of outcomes need not match the whole.
